GALR2 agonist: GALR2 receptor agonists, primary screen, cell-based; GALR2-expressing cells, agonist activation read-out; activation, %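 (tested at 5 µM)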; 140,000 tested, 0.48% active; AID 803, 2007;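 active = above mean plus 3 SD of all compounds, about 5% in these data, not always enough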;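 also: 0% = vehicle buffer wells and 100% = reference agonist at full effect; tested in CHO reporter cells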
Target sequence (O43603 whole entry, looked up): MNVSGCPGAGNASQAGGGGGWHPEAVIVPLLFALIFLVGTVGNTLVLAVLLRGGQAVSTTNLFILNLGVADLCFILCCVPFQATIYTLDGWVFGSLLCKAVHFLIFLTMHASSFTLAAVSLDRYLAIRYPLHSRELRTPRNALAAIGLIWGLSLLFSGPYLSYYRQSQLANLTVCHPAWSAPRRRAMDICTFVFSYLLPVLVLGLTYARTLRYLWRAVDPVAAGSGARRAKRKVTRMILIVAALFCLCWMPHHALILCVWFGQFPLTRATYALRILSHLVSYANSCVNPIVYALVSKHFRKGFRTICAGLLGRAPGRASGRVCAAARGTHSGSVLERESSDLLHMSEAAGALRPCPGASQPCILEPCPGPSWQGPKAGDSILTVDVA
INS promoter inh: inhibitors of insulin promoter-driven GFP, primary screen, imaging, TRM-6 cells (human fetal islet line), eGFP reporter, cell count. AID 1273, 2008. reporter expression induced with tamoxifen. inhibition, % at 2 µM. 130,000 tested, 0.9% active;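 active = inhibition above the mean plus 3 SD, with well images judged a real hit on visual review, cut at about 60% in these data, passing the limit was not always enough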
PKD1 kinase inh: inhibitors of human PKD1 kinase, biochemical, fluorescence polarization; PKD1 kinase fluorescence polarization assay; AID 797, 2007; inhibition, %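 (about 10 µM by stock and volumes)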; 200,000 tested, 0.056% active;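 active = inhibition of 50% or more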;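 also: controls were vehicle for no effect and a reference inhibitor for full effect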
RGS16-Gao HTS: modulators of RGS16 binding to Galphao, primary screen, biochemical, human proteins, multiplexed bead flow cytometry. Regulator of G-protein signaling 16 (Homo sapiens) + Guanine nucleotide-binding protein …. bead-based flow cytometry RGS16-Galphao binding, fluorescence; actives lie on both sides. binding response (% of control), % at 10 µM. 220,000 tested, 0.38% active;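 active = below 25% or above 175%, edge rows of some plates excepted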;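 also: Galphao activated by GDP with aluminum fluoride before binding; 100% = wells without compound and 0% = beads without RGS; some results beyond the cut were filed as inactive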
Target sequence (O15492 whole entry, looked up): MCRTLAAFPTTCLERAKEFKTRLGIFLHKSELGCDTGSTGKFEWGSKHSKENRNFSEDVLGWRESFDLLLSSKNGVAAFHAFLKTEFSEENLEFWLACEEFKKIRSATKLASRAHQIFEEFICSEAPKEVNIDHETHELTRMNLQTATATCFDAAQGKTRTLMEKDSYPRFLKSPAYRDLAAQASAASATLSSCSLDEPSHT
Target sequence (P09471 whole entry, looked up): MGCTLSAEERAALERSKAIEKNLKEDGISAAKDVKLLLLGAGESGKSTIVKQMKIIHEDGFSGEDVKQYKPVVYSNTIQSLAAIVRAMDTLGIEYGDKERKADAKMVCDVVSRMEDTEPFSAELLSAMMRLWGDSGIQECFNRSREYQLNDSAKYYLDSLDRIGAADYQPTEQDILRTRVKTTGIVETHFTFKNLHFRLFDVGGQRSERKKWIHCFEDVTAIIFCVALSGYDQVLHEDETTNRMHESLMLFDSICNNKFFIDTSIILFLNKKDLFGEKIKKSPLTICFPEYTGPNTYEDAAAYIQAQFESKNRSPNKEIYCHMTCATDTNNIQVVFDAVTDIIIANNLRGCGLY
HSV augment: enhancers of HSV replication in host cells, fold increase, host cell viability | HSV replication augmentation in cells | maximum fold increase | 220,000 tested, 0.005% active | AID 1956, 2009;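 active = peak rise of 1.5-fold or more in the series; tested in PC3 cells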;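 also: first round at 10 µM; read as green reporter fluorescence; hits show the peak of a series up to 25 µM; 1 = signal of infected wells without compound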
INS promoter inh cell count: second read-out of INS promoter inh, no call of its own (marks repeat the call); normalized cell count, %; measured here: cell count, toxicity; reference of the scale not given here;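 cells exposed to compound for 48 h; stained nuclei by imaging scaled within each plate; lower means fewer cells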
HSV augment primary fold: further read-out of HSV augment, marked with its call; fold increase; compound at 10 µM; measured here: primary screen fold increase 10 uM; tested in PC3 cells;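 GFP signal in the first replicate; 1 = infected wells without compound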
An asterisk follows results filed as active; i = inactive; / = no result given.

SMILES | GALR2 agonist | INS promoter inh | INS promoter inh cell count | PKD1 kinase inh | RGS16-Gao HTS | HSV augment | HSV augment primary fold
Cn1c(-c2ccc(F)cc2)cnc1NCc1cccc(F)c1 | -1.7 | -31 | 102 | -12 | 107 | i | 1.1
O=C(Nc1ccc2c(c1)OCO2)N1CCN(C(=O)C2CCCO2)CC1 (stereo not given) | -3.5 | 69 | 152 | 1 | 99 | i | 0.95
O=[N+]([O-])c1ccc(N2CCN(c3ccc(O)cc3)CC2)c(Cl)c1 | -1.3 | 87* | 135* | -1 | 99 | i | 0.68
Cc1cccc(N2CCN(C(=O)Cc3cn(C)c4ccccc34)CC2)c1C | -4.0 | -65 | 133 | -4 | 101 | i | 0.89
CCOc1ccc(-c2nnc(SCC(=O)Nc3cc(C)on3)o2)cc1 | / | / | / | 3 | 107 | i | 0.87
CCOc1ccc(C(=S)N2CCOCC2)cc1OCC | 0.5 | 14 | 116 | 2 | 98 | i | 0.86
O=c1c2c(n3cnnc3n1-c1ccccc1)-c1ccccc1CC21CCCCC1 | 0.5 | / | / | 7 | 99 | i | 0.92
Cc1ccc(N2CCN(C(=O)c3ccccc3)CC2)c(C)c1 | 0.0 | 30 | 126 | -8 | 104 | i | 0.99
Cc1ccc(-c2noc(CCCC(=O)N3CCOCC3)n2)cc1 | -0.3 | -5 | 134 | -3 | 101 | i | 0.93
CC(C)OC(=O)Nc1ccc2c(c1)N(C(=O)CCN1CCOCC1)c1ccccc1CC2 | / | 25 | 113 | -3 | 102 | i | 0.97
CC(Oc1cc(-c2ccccc2)cc2ccccc12)C(=O)N1CCOCC1 (stereo not given) | -1.0 | -56 | 139 | -2 | 97 | i | 1
CCOC(=O)C1CCN(C(=O)COc2ccc(Br)cc2)CC1 | 0.8 | 45 | 99 | -4 | 100 | i | 0.91
N#C/C(=C/c1ccccc1[N+](=O)[O-])c1nc(C2CC2)cs1 | 0.3 | / | / | -2 | 108 | i | 0.72
CCN(CC)C(=O)c1c(NC(=O)c2ccccc2)sc(C)c1C | -0.7 | 29 | 127 | -6 | 103 | i | 0.95
O=C(CSCc1ccccc1)N1CCN(c2cccc(C(F)(F)F)c2)CC1 | -0.5 | / | / | -2 | 104 | i | 0.97
O=C(NCc1ccco1)C1CCCN(S(=O)(=O)c2ccccc2)C1 (stereo not given) | -2.5 | 44 | 143 | -5 | 103 | i | 0.87
COc1ccc(NC(=O)/C(C#N)=C\c2cc(C)n(-c3ccc4c(c3)OCO4)c2C)cc1 | 0.2 | -7 | 115 | -7 | 109 | i | 0.82
COc1cc(C(=O)N/N=C\c2ccccc2)c([N+](=O)[O-])c(OC)c1OC | -4.0 | -470 | 72 | -1 | 85 | i | 0.96
CCC(=O)Nc1nc2nc(C)cc(=O)n2[nH]1 | -2.3 | 4 | 103 | -5 | 98 | / | /
Cc1ccc2nc(SCc3cn4c(C)cc(C)nc4n3)[nH]c2c1 | 0.2 | / | / | -2 | 102 | i | 1.1
CC(C)(C)c1ccc(Oc2ccc(NC(=O)c3cccs3)cn2)cc1 | / | / | / | / | 102 | i | 1.1
COc1ccc(NC(=O)C2CCN(c3cc(-c4ccccc4)nc4ncnn34)CC2)cc1OC | -0.4 | / | / | 19 | 108 | i | 0.84
COc1ccc(NC(=O)COC(=O)[C@@H]2CCCN2S(=O)(=O)c2ccccc2F)c(OC)c1 | / | -33 | 60 | -2 | 96 | i | 1
O=C(CSc1ccc(-c2ccco2)nn1)NCc1ccc2c(c1)OCO2 | / | 50 | 143 | 1 | 99 | i | 1
COc1ccc(C(=O)NCc2nnc(SCC(=O)c3ccccc3)n2C)cc1 | / | / | / | 2 | 104 | i | 0.98
O=c1c(-c2ccc3c(c2)OCCO3)coc2cc(O)cc(O)c12 | -2.1 | -51 | 44 | -6 | 104 | i | 1.3
Cc1ccc(S(=O)(=O)N2CCC(=O)N(C(CO)C(C)C)CC2)cc1 (stereo not given) | -0.7 | 43 | 88 | -2 | 96 | i | 0.87
Cc1ccc(CN2CCN(Cc3cccn3-c3ccccn3)CC2CCO)cc1 (stereo not given) | / | / | / | -5 | 106 | i | 0.84
Cc1ccccc1-n1ncc2c(SCC(=O)N3c4ccccc4CC3C)ncnc21 (stereo not given) | 1.9 | -17 | 124 | 10 | -184 | i | 0.8
O=C(O)CSC1=NC(=Nc2ccc(Cl)cc2)C2(CCCCC2)N1c1cccc(C(=O)O)c1 | -1.3 | 26 | 130 | 5 | 98 | i | 0.91
FC(F)(F)c1cc(-c2ccco2)nc(N2CCN(Cc3ccccc3)CC2)n1 | -1.3 | 10 | 104 | 3 | 105 | i | 0.95
COc1ccc(C(=O)CCC(C)(C)[N+](=O)[O-])cc1 | / | 44 | 153 | -4 | 102 | i | 1.1
CC(C)Oc1ccc(Nc2ncnc3ccccc23)cc1 | / | / | / | -3 | 100 | i | 0.92
O=c1c2cc(NC(=S)NCCN3CCCCCC3)ccc2nc2n1CCCCC2 | / | / | / | 1 | 98 | i | 0.93
O=C1NC2(CCOc3ccccc32)C(=O)N1CC(=O)N(Cc1ccccc1)C1CCS(=O)(=O)C1 (stereo not given) | -1.6 | / | / | 12 | 89 | i | 0.96
CCOC(=O)CSc1nc(C)cc(=O)[nH]1 | -2.8 | 30 | 93 | -3 | 95 | i | 1.2
COC(=O)c1c(C)nc(C)c(C(=O)OC)c1-c1ccc(OC)cc1 | / | / | / | / | 101 | i | 1.1
CCOC(=O)CN(C(=O)CSc1nnc2c(n1)[nH]c1ccccc12)c1ccccc1 | -0.6 | 21 | 107 | -4 | 97 | i | 0.89
Cn1c(SCC(=O)NC2CCCC2)nnc1-c1ccncc1 | / | / | / | -1 | 114 | i | 1.1
Fc1ccc(COc2ccccc2C(=S)N2CCCC2)cc1 | -1.7 | -46 | 81 | 2 | 48 | i | 1.1
Cc1cc(SCC(=O)Nc2ccccc2)n2ncc(-c3ccccc3)c2n1 | / | / | / | / | 102 | i | 0.96
Cc1ccc2[nH]c(C(F)(F)F)cc(=O)c2c1 | / | / | / | / | 104 | i | 0.94
O=C1/C(=C/c2ccc(O)c([N+](=O)[O-])c2)SC(=S)N1Cc1ccccc1 | / | -9 | 64 | 0 | 94 | i | 1.1
O=c1c2c3nc4ccccc4nc3n(CC3CCCO3)c2ncn1CCc1ccccc1 (stereo not given) | 1.5 | -130 | 58 | 4 | 98 | i | 0.94
O=C(Nc1nnc(CCS(=O)(=O)c2ccc3ccccc3c2)s1)c1ccc([N+](=O)[O-])cc1 | -2.1 | 41 | 145 | -7 | 80 | i | 0.99
Oc1cccc(/C=N/Nc2nn3cnnc3c3ccccc23)c1 | / | / | / | / | 101 | i | 0.96
CC(=O)OC1(C(F)(F)F)Oc2ccccc2NC1=O (stereo not given) | -1.9 | 23 | 101 | -14 | 98 | i | 0.74
O=c1cc[nH]c2c(C(F)(F)F)cccc12 | -1.0 | 6 | 87 | 3 | 102 | i | 0.97
O=C(CSc1ccc(-c2ccccn2)nn1)Nc1nccs1 | / | / | / | 0 | 97 | i | 0.89
CC(C)(C)NC(=O)C(c1ccco1)N(C(=O)Cn1nnc(-c2ccc(F)cc2)n1)c1ccccc1F (stereo not given) | -0.6 | 53 | 113 | 1 | 99 | i | 0.86
N#C/C(=N\Nc1ccccc1F)C(=N)N1CCCCC1 | -2.0 | 63 | 111 | -11 | 102 | i | 0.84
O=C1CC(C(=O)Nc2ccc(C(=O)N3CCOCC3)cc2)C2(CCCCC2)O1 (stereo not given) | 0.8 | / | / | -2 | 101 | i | 0.65
Cc1ccc(-n2nnnc2-c2cnc(N3CCCC3)nc2C(F)(F)F)cc1 | -1.8 | 17 | 92 | 3 | 102 | i | 0.9
CC(=O)Nc1ccc(S(=O)(=O)N2CCN(Cc3ccncc3)CC2)cc1 | -1.8 | -69 | 51 | -3 | 101 | i | 0.95
Cc1cccc(NC(=O)N2CCCC2C(=O)Nc2ccccc2)c1 (stereo not given) | / | / | / | 3 | 102 | i | 1.1
O=S(=O)(c1ccccc1C(F)(F)F)N1CCN(S(=O)(=O)c2ccccc2C(F)(F)F)CC1 | -1.8 | 3 | 80 | -6 | 99 | i | 1.1
CCN(CC)C(=O)C1CCCN(c2ccc([N+](=O)[O-])cc2/C=N/NC(=O)c2cccc(Br)c2)C1 (stereo not given) | -1.0 | 23 | 79 | 2 | 99 | i | 1
Cc1ccc(S(=O)(=O)N2CCCC(C(=O)NCc3ccccn3)C2)cc1 (stereo not given) | -1.9 | 21 | 106 | 0 | 98 | i | 0.88
C=CCn1c(Cc2nc3ccccc3[nH]2)n[nH]c1=S | -1.9 | 19 | 161 | 3 | -287 | i | 0.92
Cc1nc2nc[nH]n2c(=O)c1NC(=O)CCc1ccccc1 | -2.8 | -23 | 126 | -5 | 102 | i | 0.91

Continued.
SMILES | GALR2 agonist | INS promoter inh | INS promoter inh cell count | PKD1 kinase inh | RGS16-Gao HTS | HSV augment | HSV augment primary fold
CC1(C)CC(=O)C2=C(C1)N(c1ccc(F)cc1)C(=O)NC2(C(F)(F)F)C(F)(F)F | -1.0 | 3 | 144 | 3 | 105 | i | 0.96
COc1ccc(C/C(N)=N/OC(C)=O)cc1OC | -0.3 | -8 | 69 | -4 | 109 | i | 1
CC(=O)[C@H]1[C@H](C#N)C[C@H]2[C@@H]3CC=C4C[C@@H](O)CC[C@]4(C)[C@H]3CC[C@@]21C | 0.1 | -30 | 94 | -2 | / | i | 0.81
COc1cccc(-c2nc(CS(=O)(=O)CC(=O)Nc3c(C)cccc3C)c(C)o2)c1 | -1.4 | / | / | -7 | 103 | i | 0.99
Cc1noc(C)c1COc1ccc2ccc(=O)oc2c1 | / | / | / | 1 | 101 | i | 1
NS(=O)(=O)c1ccc(CCNC(=O)c2cncc(Br)c2)cc1 | -1.6 | / | / | -6 | 95 | i | 1.1
CC(=NCCN1CCN(C(=S)Nc2ccccc2)CC1)C1=C(O)CC(C)(C)CC1=O | -2.2 | / | / | 3 | 98 | i | 0.94
N#Cc1nc(-c2ccccc2Cl)oc1NCC1CCCO1 (stereo not given) | -2.8 | / | / | 4 | 102 | i | 0.9
O=c1c2cnn(-c3ccccc3)c2nc(-c2cccs2)n1-c1cccc(Cl)c1 | -0.3 | / | / | -5 | 102 | / | /
O=C(N/N=C/c1ccc(O)c([N+](=O)[O-])c1)C1CC1(c1ccccc1)c1ccccc1 (stereo not given) | / | -14 | 80 | -5 | 110 | i | 0.92
COc1cc(C)c2c(c1C=O)Oc1c(c(C)c(O)c3c1C(O)OC3=O)OC2=O (stereo not given) | / | / | / | -1 | 102 | i | 0.82
Cc1csc(NC(=O)CSCC(=O)O)c1-c1nc2ccccc2s1 | / | / | / | / | 98 | i | 1
CC(C)N1CCc2[nH]c(=S)[nH]c(=O)c2C1 | -0.7 | / | / | -4 | 97 | i | 1
Fc1ccc(NC(=S)NC2CC3CCC(C2)N3Cc2ccco2)cc1 (stereo not given) | / | / | / | -6 | 100 | i | 1.1
O=S(=O)(/N=C(\c1ccccc1)N1CCOCC1)c1cccs1 | -2.5 | -143 | 95 | -7 | 107 | i | 1
C=CCC(CC=C)(NC(=O)c1cccc(C)c1)c1ccccc1 | -0.7 | -80 | 56 | -10 | 41 | i | 1
O=C(Nc1ccccc1N1CCCC1)c1ccc(Br)o1 | -4.7 | 50 | 61 | -7 | 91 | i | 1.1
Cc1ccccc1OCC(O)CN1CCN(c2ccccn2)CC1 (stereo not given) | / | / | / | -1 | 96 | i | 0.93
O=C(CSc1nc(Nc2ccccc2)nc(N2CCOCC2)n1)N1CCCC1 | -1.5 | 61 | 80 | -2 | -33 | i | 1.1
Clc1cccc(CSc2nc3ccncc3[nH]2)c1 | -0.4 | / | / | 0 | 101 | i | 1.1
C#CC[N+](C)(C)C(C#Cc1ccccc1)CC=C (stereo not given) | 0.1 | 2 | 153 | 4 | 106 | i | 0.88
O=C(NCc1nc2ccccc2[nH]1)c1cccc(S(=O)(=O)N2CCCCC2)c1 | / | / | / | 3 | 96 | i | 0.88
CN(c1ccccc1)c1nc(N)c([N+](=O)[O-])c(N2CCCCCC2)n1 | / | / | / | / | 98 | i | 1.1
CC(=O)c1cn(CC(=O)Nc2ccc(C)cc2)c2ccccc12 | -1.8 | -7 | 77 | 2 | 97 | i | 1
Cc1ccc(/C=N/NC(=O)C(O)c2ccccc2)o1 (stereo not given) | / | / | / | / | 100 | i | 0.94
CCN(C(=O)COC(=O)c1ccc2c(=O)n3c(nc2c1)CCC3)C1CCS(=O)(=O)C1 (stereo not given) | / | / | / | -4 | 100 | i | 1
